Source: PubChem BioAssay
miR-21 reporter: qHTS Assay for Modulators of miRNAs and/orActivators of miR-21; 340,000 tested, under 10 active; Potency, µM (doses to about 38.3 µM), for inactives: at the top dose reporter change, positive = more light; HeLa miR-21 FLuc reporter, luciferase, 48 h; AID 2288, 2010; active = well fitted rising curve with a large enough effect; inconclusive = small, poorly fitted or top-dose-only effect; inactive = no such curve, though single readings can be large or run the other way;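 note: % of control where 0% means no effect; miR-21 action dims this reporter so a rising signal means less miR-21 action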
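Using DMEM plus 10% FBS, HeLa miR-21-FLuc cells are incubated with test compounds (final up to about 40uM) for 48 hours; firefly luciferase signal is then imaged following reagent-mediated lysis.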
Rango complex inh: qHTS Assay for Inhibitors of Rango (Ran-regulated importin-beta cargo) - Importin beta complex formation | Rango CFP/YFP FRET sensor + importin beta, 45 min | Potency, µM (titrated, usually from 92.2 µM), for the others: at the top dose inhibition of complex formation | 340,000 compounds, 0.031% hits | AID 540263, 2011; active = rising FRET ratio curve, often small or poorly fitted; inconclusive = mostly compound fluorescence or quenching in the first reads; inactive = flat curves in all reads;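 note: potency is the fitted concentration of half-maximal effect; 0% = DMSO wells and 100% = buffer wells lacking importin beta; nearly all actives have a fitted effect of over 15% in size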
Target sequence (Q14974 whole entry, looked up): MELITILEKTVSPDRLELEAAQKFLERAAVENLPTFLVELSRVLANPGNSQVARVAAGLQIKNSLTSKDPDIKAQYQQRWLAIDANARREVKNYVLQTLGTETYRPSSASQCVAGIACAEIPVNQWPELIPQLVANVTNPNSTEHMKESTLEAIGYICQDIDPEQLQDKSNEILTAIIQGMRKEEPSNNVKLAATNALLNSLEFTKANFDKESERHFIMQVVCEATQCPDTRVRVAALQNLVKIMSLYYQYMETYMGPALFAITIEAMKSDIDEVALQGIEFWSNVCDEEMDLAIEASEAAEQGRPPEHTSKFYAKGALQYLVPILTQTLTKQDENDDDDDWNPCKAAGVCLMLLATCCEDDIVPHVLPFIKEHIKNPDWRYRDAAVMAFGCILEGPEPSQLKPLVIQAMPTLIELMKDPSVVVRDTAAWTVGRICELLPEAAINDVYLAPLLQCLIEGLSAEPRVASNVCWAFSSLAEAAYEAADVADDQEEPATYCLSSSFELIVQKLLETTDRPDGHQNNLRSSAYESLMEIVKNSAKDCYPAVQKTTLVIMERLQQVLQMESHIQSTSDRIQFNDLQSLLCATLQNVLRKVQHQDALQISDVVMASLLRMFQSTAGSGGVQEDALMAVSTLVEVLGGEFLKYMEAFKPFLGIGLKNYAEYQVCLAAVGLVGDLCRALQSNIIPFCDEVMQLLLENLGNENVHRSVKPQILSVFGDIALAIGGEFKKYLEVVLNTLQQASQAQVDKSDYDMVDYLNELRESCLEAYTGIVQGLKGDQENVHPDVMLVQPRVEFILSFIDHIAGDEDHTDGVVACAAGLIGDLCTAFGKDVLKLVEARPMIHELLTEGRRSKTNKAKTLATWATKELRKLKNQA
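FRET biosensor (snurportin 1 IBB flanked by EYFP and cerulean), 50 nM, with compound 5 min, then 0.125 microM importin beta in PBS, 1 mM DTT, 0.02% Tween-20, 0.1% BSA. CFP/YFP ratio read after 45 min at room temperature; pre-read flags interference.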
GLA inh pH 4.5: qHTS Assay for Inhibitors of Human alpha-Galactosidase at pH 4.5. 230,000 tested, under 10 active. activity change, negative = inhibition, % at 105 µM. purified enzyme, 4-MU-alpha-Gal fluorescence, pH 4.5. Alpha-galactosidase A (Homo sapiens), P06280; inconclusive = small, poorly fitted or top-dose-only inhibition, or a rising curve; inactive = flat fitted curve, though single readings scatter; no compound was filed as active;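 note: 0% = full activity with enzyme and -100% = basal without enzyme; dose as in the result columns while the protocol names 77 µM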
Rango dissoc inh: qHTS Assay for Inhibitors of RanGTP induced Rango (Ran-regulated importin-beta cargo) - Importin beta complex dissociation; Snurportin-1 (Homo sapiens) + GTP-binding nuclear protein Ran (Homo sapiens) + Importin …; Biochemical FRET Rango-importin beta, RanGTP-induced dissociation; Potency, µM (highest dose often 46.1 µM), for inactives: at the top dose activity change, negative = inhibition; 340,000 compounds, 0.071% hits; AID 540253, 2011; active means falling FRET ratio curve, often poorly fitted, with flat reads before Ran was added; inconclusive means other falling curves, or compound fluorescence or quenching; inactive means flat or rising ratio curve;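 note: potency is the fitted concentration of half-maximal effect; % of control where 0% means no effect; nearly all actives have a fitted effect of over 45% in size; -100% = wells without RanGTP and RCC1; the record marks most hits as doubtful in a second field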
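Compounds preincubate 5 min with complex of recombinant Rango and importin beta in PBS with 1 mM DTT. Ran (0.6 uM) loaded with 2 mM GTP plus 0.2 uM RCC1 starts dissociation; FRET is recorded 45 min later.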
The depositor's hits bear a star; u = inconclusive; x = no result given. An excerpt. The share of hits here may be higher or lower than overall.

Results follow in this order: miR-21 reporter | Rango complex inh | GLA inh pH 4.5 | Rango dissoc inh
O=C(CCCCCCCCC(=O)N/N=C/c1ccco1)N/N=C/c1ccco1
→ -1% | 2.8% | 0 | 24%
Cc1nnc(NCc2n[nH]c(=O)c3ccccc23)c2ccccc12
→ -7% | -0.2% | -4 | -6%
CCN(Cc1nc2ccccc2c(=O)[nH]1)Cc1nc2cc(OC)c(OC)cc2c(=O)[nH]1
→ -1% | 3.5% | 5 | -5%
CCOc1ccc(/C=C/C(=O)Nc2ccc(N3CCOCC3)cc2)cc1
→ -11% | -0.4% | -5 | 9%
COc1cccc(CNS(=O)(=O)c2c(C)[nH]c(C)c2C(=O)N2CCCCC2)c1
→ -4% | 1.2% | x | -15%
CCN(CC)CC(=O)Nc1sc(C)cc1C(=O)c1ccccc1
→ -1% | -0.1% | x | -12%
O=C(O)CCCCNS(=O)(=O)/C=C/c1ccccc1
→ 2% | 2.7% | 7 | 1%
CCN(C(=O)c1cc2cccc(OC)c2oc1=O)c1ccccc1
→ -2% | u | -7 | -8%
Cc1ccccc1OCCCCc1c(C)n[nH]c1C
→ 12% | u | -11 | 2%
COCc1cc(C)nc(SCC(=O)Oc2ccccc2)c1C#N
→ -18% | u | 6 | u
Cc1ccc(C2N(C)C(=O)c3ccccc3N2C)cc1 (configuration not stated)
→ 26% | 0.5% | x | -3%
Cc1oc2cc3oc(=O)cc(C)c3cc2c1C
→ -21% | 0.9% | x | -15%
Cc1csc2c(N3CCCCC3)ncnc12
→ -41% | -5.3% | 2 | -11%
C=CCn1c2ccccc2c(=O)c2cc(C#CC3(O)CCCCC3)ccc21
→ 20% | u | x | u
Cn1c(CCNC(=O)c2ccccc2F)nnc1SCC(=O)Nc1nncs1
→ 3% | 0.1% | x | 9%
O=C(CCCCCCCC(=O)NCC1CCCO1)NCC1CCCO1 (configuration not stated)
→ -2% | -2.8% | -10 | -10%
COc1cc(C)ccc1OCCOCCN(C)Cc1ccccc1
→ -1% | 0.6% | 6 | -14%
O=C(NC1CCCCCCC1)c1ccc(F)c(S(=O)(=O)N2CCOCC2)c1
→ x | 2.1% | x | -12%
CCCOc1cccc(C(=O)Nc2cc(NC(=O)c3ccco3)ccc2OC)c1
→ 17% | 3.2% | -13 | -19%
COc1ccc(CN2CCNC(=O)C2CC(=O)NC2CCCCCC2)c(C)c1C (configuration not stated)
→ -4% | -1.3% | x | -1%
Cc1noc(C)c1CNCc1ccccc1
→ 3% | 0.2% | x | -7%
COc1ccc(C(=O)Oc2cc(C)c(CN3CCOCC3)cc2C)cc1OC
→ 0% | -1.7% | x | 6%
COCCNC(=S)N(C)C1(c2ccccc2Cl)CCCCC1=O (configuration not stated)
→ -2% | 0.5% | -9 | 8%
COc1ccc(-c2noc(-c3cccc(Cl)c3)n2)cc1OC
→ -35% | -1.4% | 1 | -3%
C#CCOCCOCCOCCNc1nc(N2CCN(C(=O)C([C@@H](C)O)n3cc([C@@H](N)CCCCN)nn3)CC2)nc(N2CCN(C(=O)[C@H](CCC(=O)O)n3cc([C@@H](N)[C@H](C)CC)nn3)CC2)n1 (some centres not stated)
→ x | -0.4% | x | -1%
CC(C)(C)OC(=O)N1CCC(CC2CC(c3cccc(Br)c3)=NO2)(C(=O)O)CC1 (configuration not stated)
→ -1% | 0.2% | x | 9%
CC(C)n1nc(Cc2cccc3ccccc23)c(C#N)c1N
→ x | -3.6% | x | 15%
Cc1ccc(CC2SC(N=C(N)N)=NC2=O)cc1 (configuration not stated)
→ -1% | -0.1% | x | 18%
CCOC(=O)N1CCN(C(=O)/C=C/c2c(C)nn(-c3ccc(F)cc3)c2Cl)CC1
→ 2% | -2.0% | 3 | -6%
COc1ccnc(Oc2ccc(F)cc2)c1C(=O)N/C=N/OCc1ccc(Cl)cc1Cl
→ -8% | 2.9% | -13 | 3%
O=C(COc1ccccc1[N+](=O)[O-])NCC1COc2ccccc2O1 (configuration not stated)
→ x | -2.7% | x | 3%
C[C@H]1COC(=O)[C@@H](Cc2ccc(F)cc2)C/C=C\C[C@H](CC(=O)NCCO)C(=O)N1
→ x | -2.9% | x | -12%
OC(C#CCN1CCOCC1)c1cccs1 (configuration not stated)
→ -9% | -1.2% | 5 | 1%
CCOC(=O)CSc1nc2sc3c(c2c(=O)n1-c1ccccc1)CCN(C(C)C)C3
→ -8% | u | x | 18µM*
CC(C)(C)C(=O)NC(=S)Nc1cc(C(F)(F)F)ccc1N1CCOCC1
→ -12% | -3.3% | -10 | 13%
COc1cc(C(=O)Nc2cc(-c3ccccc3)[nH]n2)cc(OC)c1OC
→ 16% | 0.2% | -3 | -1%
COc1ccccc1OCCC(=O)OCC(=O)NCc1ccc(Cl)cc1
→ 1% | -5.9% | 0 | -6%
N=C1C(c2nc(-c3ccc(F)cc3)cs2)=C(O)CN1CCCN1CCOCC1
→ -19% | 5.6% | 1 | 15%
CCCn1c(SCC(=O)c2cc(C)n(-c3ccc4c(c3)OCO4)c2C)n[nH]c1=O
→ 10% | -1.4% | 1 | 9%
COc1ccc2sc(-c3ccccc3OC)c(-c3ccc4c(c3)OCCO4)c2c1
→ x | -3.1% | x | 14%

Reprinted from the part before: 2 compounds; new compounds follow.
Results follow in this order: miR-21 reporter | Rango complex inh | GLA inh pH 4.5 | Rango dissoc inh
CCCn1c(SCC(=O)c2cc(C)n(-c3ccc4c(c3)OCO4)c2C)n[nH]c1=O
→ 10% | -1.4% | 1 | 9%
COc1ccc2sc(-c3ccccc3OC)c(-c3ccc4c(c3)OCCO4)c2c1
→ x | -3.1% | x | 14%
CCC(C)NC(=O)COc1ccc(OCc2ccccc2)cc1 (configuration not stated)
→ 0% | -0.1% | -15 | 13%
CCOC(=O)Cn1nnnc1CN(Cc1ccc(OC)cc1)Cc1cc2cc(C)ccc2[nH]c1=O
→ -3% | 0.2% | -18 | 4%
CC(=O)N1CCN(CC(=O)Nc2ccc(C)c(F)c2)CC1
→ -4% | -1.2% | x | 0%
O=C(N/N=C/c1ccc(O)cc1O)c1ccncc1
→ 17% | u | x | u
Cc1c(NC(=O)CSc2nnc(-c3ccncc3)o2)c(=O)n(-c2ccccc2)n1C
→ 0% | -0.7% | 2 | 8%
CCCCNC(=O)CN(c1ccc(Cl)c(Cl)c1)S(C)(=O)=O
→ -8% | 6.1% | 4 | -2%
Cc1nn2c(NCC(C)C)c3c(nc2c1-c1ccccc1)CCC3
→ -3% | 0.1% | -2 | 20%
CS(=O)(=O)Nc1ccccc1C(=O)c1ccccc1
→ -5% | 1.0% | -8 | 3%
OC(c1cc(C(F)(F)F)nc2c(Cl)cc(Cl)cc12)C1CCCCN1 (configuration not stated)
→ u | -0.8% | -4 | -9%
CC(C)/C(=N\NC(=O)Nc1ccccc1)c1ccccc1
→ -14% | -2.0% | -5 | 26%
Nn1c(SCC(=O)NCc2ccccc2)nnc1C1CC1
→ -3% | 2.9% | -2 | -5%
Cc1cc(C)n(-c2cc(N3CCN(S(=O)(=O)c4ccc5ccccc5c4)CC3)ccc2[N+](=O)[O-])n1
→ 3% | -0.5% | -14 | 0%
CCOc1cc(C(=S)N2CCOCC2)cc(Br)c1OS(=O)(=O)c1ccccc1
→ 15% | -0.2% | x | -10%
COc1ccc(Cl)c2sc(N(CCN(C)C)C(=O)C3=COCCO3)nc12
→ x | -1.9% | x | 3%
COc1cc(O)c2c(c1)OC(c1ccc(O)cc1)CC2=O (configuration not stated)
→ -18% | -4.4% | 3 | -2%
CCOC(=O)c1cccc(NC(=O)CCn2nnc3ccccc32)c1
→ -6% | 1.5% | 9 | -8%
CCOC(=O)C(=O)Nc1nc(-c2ccc3c(c2)CCN3C(=O)C2CC2)c(C)s1
→ -15% | -1.3% | x | -1%
COc1cc(S(=O)(=O)NC2CCCC2)c(OC)cc1Cl
→ -1% | 3.4% | -1 | -11%
COc1ccccc1N1CCN(C(=O)c2ccc3nc(-c4ccco4)c(-c4ccco4)nc3c2)CC1
→ 22% | u | 2 | u
O=c1/c(=C/c2ccc(O)cc2)sc2n1CCCN=2
→ -39% | -4.5% | -26 | -26%
CCC(=O)N1CCN(c2ccc(Cl)cc2NC(=O)c2ccc(Br)o2)CC1
→ x | -1.7% | x | 18%
CCOc1cc(C(=O)NC(CC(=O)O)c2ccc(OC3CCCC3)cc2)cc(OCC)c1OCC (configuration not stated)
→ 1% | 2.3% | x | 24%
COc1cc(NC(=S)NC2CC(C)(C)NC(C)(C)C2)cc(OC)c1
→ -6% | -3.3% | 5 | 1%
Cc1onc(-c2ccccc2Cl)c1C(=O)NC(=S)NCc1cccnc1
→ -6% | -1.6% | 0 | 10%
COc1ccc(CNC(=O)C(c2cccs2)N(C(=O)c2csnn2)C2CC2)cc1 (configuration not stated)
→ 0% | -4.5% | -7 | 1%
N/C(=N\OC(=O)c1ccc(Cl)cc1Cl)c1ccc(Cl)cc1
→ -39% | -2.2% | -1 | 3%
Cc1cn(CC(=O)NCc2ccc3c(c2)OCO3)c(=O)[nH]c1=O
→ x | 3.2% | x | -12%
COC(=O)c1c(N)sc(Cc2ccccc2)c1C
→ 2% | -2.7% | -1 | 0%
O=C(C1CC(=O)N(c2ccc(F)cc2)C1)N1CCN(c2ccc(F)cc2)CC1 (configuration not stated)
→ 0% | 4.0% | x | -13%
Cc1ccc(CN(Cc2ccc(C)o2)C(=S)NCC(=O)O)cc1
→ -7% | 1.7% | 7 | -24%
C=CCN1C(C(=O)c2ccccc2)=C(OC(=O)COc2ccccc2)c2ccccc2S1(=O)=O
→ u | -2.6% | -13 | 22%
O=C(O)CS(=O)(=O)CC(=O)NCc1cccc(C(F)(F)F)c1
→ -1% | -2.0% | 14 | -13%
COc1ccc(C(=S)N2CCOCC2)cc1OC(=O)c1ccc(C)cc1
→ -2% | 2.7% | x | 1%
COCCNC(=O)CCCn1c(=O)c2cc(OC)c(OC)cc2n(CC(=O)c2ccc(Cl)cc2)c1=O
→ -2% | x | 3 | x
CN1CCc2c(sc(/N=C/c3cc(Cl)ccc3O)c2C#N)C1
→ -78% | u | 2 | u
O=C(NC1CCCC1)C1C2C=CC(C2)C1C(=O)N1CCOCC1 (configuration not stated)
→ -4% | -2.2% | 3 | -22%
CCc1ccccc1S(=O)(=O)Cc1ccc(C(=O)NCCc2ccccc2)o1
→ -4% | -3.5% | x | -8%
O=C(CNC(=O)c1ccccc1F)NCc1ccncc1
→ x | 2.3% | x | -4%
Nc1ccc(Sc2nnnn2-c2ccccc2)c(Cl)c1
→ -1% | -3.7% | 4 | 7%
CCc1cc(=O)oc2c3c(cc(OCC(=O)NCCCCCC(=O)O)c12)OC(C)(C)CC3
→ -20% | 1.2% | x | 2%
O=C(CCn1c(=O)oc2cc(Cl)ccc21)Nc1ccc(O)cc1
→ 0% | -0.4% | x | -5%
O=C1NC(=S)SC1=Cc1ccc2c(c1)OCO2
→ x | -3.4% | x | 13%
CC1CCN(C(=O)COC(=O)c2ccc(=O)n(Cc3ccccc3)n2)CC1
→ x | 4.8% | x | 23%
COCc1nnc(NC(=O)CCCCCN2C(=O)c3ccccc3C2=O)s1
→ -5% | -2.7% | -5 | 6%
CC(C)C(=O)Nc1nnc(Cc2c[nH]c3ccccc23)s1
→ -30% | -10% | 4 | -3%
CCCC(=O)OCC(=O)Nc1ccc2c(c1)OCO2
→ 6% | -0.7% | 11 | 13%
CCN(CC)c1ccc(/C=N/Nc2nc3ccccc3[nH]2)cc1
→ u | 1.3% | -5 | -5%
Cc1cc(C(=O)NCC(=O)OC(C(=O)Nc2cc(C(F)(F)F)ccc2Cl)c2ccccc2)ccc1[N+](=O)[O-] (configuration not stated)
→ -9% | -4.5% | -1 | 0%
O=C(O)C1C2CCC(O2)C1C(=O)Nc1cccc(F)c1 (configuration not stated)
→ -17% | x | 3 | x
CCOC(=O)Cc1csc(NC(=O)c2ccc(Br)s2)n1
→ 1% | x | 12 | x
COc1cc(Cl)cc(C#N)c1OCC(=O)O
→ 0% | -1.8% | -1 | -16%
Cc1nn(-c2ccccc2)c(Cl)c1C(=O)NC1CCCCC1
→ -15% | 2.4% | 0 | 4%
CC(C)CC(c1nnnn1CC1CCCO1)N1CCN(C2CCCC2)CC1 (configuration not stated)
→ -1% | 0.0% | 0 | 0%
